UUG fidelity: yeast start codon fidelity modulation | S. cerevisiae UUG-firefly luciferase reporter, luminescence/redox ratio | activity score, % at 18.7 µM | 0.13% of 350,000 active | AID 602363;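 active = replicate mean at a twofold rise or more, about +100% in these data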;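 note: firefly luciferase made from a UUG start codon reports start codon fidelity; reporter light over untreated wells divided by growth signal over untreated wells; some hits fall short of that in this replicate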
eIF4H inh: inhibitors of RNA binding by human eIF4H | eIF4H fluorescence polarization binding assay | inhibition, % at 35 µM | 0.94% of 290,000 active | AID 2012;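 active = 50% or more with normal probe brightness, or confirmed in later tests; inconclusive = above 50% with abnormal brightness, or retests that disagree; inactive = below 50% or failed in later tests; about a fifth of its hits are not listed in these tables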;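 note: calls also rest on retests at 20 µM and on dose response follow-up; 0% = protein and probe with vehicle and 100% = probe without protein; strong numbers were not always called active; many hits fall short of the cut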
CSC inhib: blocks cancer stem cells | inhibition, % at 7.5 µM | 1.1% of 300,000 active | AID 2717 | cancer stem cell-like cells viability, luminescence;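 active = mean at 75% or more and at least half the replicates too; inconclusive = mean and replicates disagree; tested in HMLE shEcad cells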;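 note: 0% = median of negative and 100% = median of positive control wells; the first replicate is given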
HIV Env fusion: inhibitors of HIV Env-mediated cell fusion | HeLa-JRFL Env/CEM21 cell fusion, luciferase | inhibition, % at 12.3 µM | 1.1% of 360,000 active | AID 651610;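 active = mean replicate inhibition score of at least 50 and every replicate individually at or above 50; inconclusive = only one of the two criteria met; inactive = mean below 50 and not all replicates reaching 50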;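 note: 0% = plate neutral controls and 100% = maraviroc near 300 nM; one replicate is shown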
MT1-MMP act inh: MT1-MMP (human) activation inhibition; HT1080 RFP-PRO-GFP cells, GFP/RFP ratio fluorescence, overnight; percent of plate control window, DMSO zero; 0.061% of 360,000 active; P50281; GFP/RFP ratio change, % at 20 µM;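 active = GFP/RFP ratio change of at least 30% with cell ATP level not reduced by more than half and red fluorescence within 50% of control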; note: strong numbers were not always called active
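Test system: HT1080 cells expressing an RFP-PRO-GFP fluorescent reporter construct / Compound dosing: single-point 20 µM compound, 1% DMSO / Schedule: cells overnight before dosing, compound overnight, 37 °C, 5% CO2 / Evaluation: GFP/RFP fluorescence ratio / Control set: DMSO and RFP-L50D-GFP cell wells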
Rce1 inhib: yeast Ras-converting enzyme inhibition; yeast membranes, quenched prenylated peptide cleavage fluorescence; 0.27% of 290,000 active; calls only; AID 2563; Q03530;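 active = fall in fluorescence gain of 50% or more versus controls, with final raw signal at or below 3038400; inconclusive = same 50% fall but final raw signal above 3038400; inactive = fall in fluorescence gain under 50%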;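 note: plate controls were neutral control wells for no effect and wells lacking membranes for full effect; tested at 10 µM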
PABP FP inh: PABP-poly(A) binding inhibition; PABP-poly(A) RNA binding, fluorescence polarization; inhibition, % at 35 µM; 1% of 290,000 active;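 active = 50% or more with normal probe brightness, or confirmed in later tests; inconclusive = above 50% with abnormal brightness, or retests that disagree; inactive = below 50% or failed in later tests; about a fifth of its hits are not listed in these tables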;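 note: calls also rest on retests at 20 µM and on dose response follow-up; controls were probe without protein and protein plus probe with vehicle; some compounds called inactive have numbers as strong as hits; many hits fall short of the cut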
Target sequence (P11940 whole entry, looked up): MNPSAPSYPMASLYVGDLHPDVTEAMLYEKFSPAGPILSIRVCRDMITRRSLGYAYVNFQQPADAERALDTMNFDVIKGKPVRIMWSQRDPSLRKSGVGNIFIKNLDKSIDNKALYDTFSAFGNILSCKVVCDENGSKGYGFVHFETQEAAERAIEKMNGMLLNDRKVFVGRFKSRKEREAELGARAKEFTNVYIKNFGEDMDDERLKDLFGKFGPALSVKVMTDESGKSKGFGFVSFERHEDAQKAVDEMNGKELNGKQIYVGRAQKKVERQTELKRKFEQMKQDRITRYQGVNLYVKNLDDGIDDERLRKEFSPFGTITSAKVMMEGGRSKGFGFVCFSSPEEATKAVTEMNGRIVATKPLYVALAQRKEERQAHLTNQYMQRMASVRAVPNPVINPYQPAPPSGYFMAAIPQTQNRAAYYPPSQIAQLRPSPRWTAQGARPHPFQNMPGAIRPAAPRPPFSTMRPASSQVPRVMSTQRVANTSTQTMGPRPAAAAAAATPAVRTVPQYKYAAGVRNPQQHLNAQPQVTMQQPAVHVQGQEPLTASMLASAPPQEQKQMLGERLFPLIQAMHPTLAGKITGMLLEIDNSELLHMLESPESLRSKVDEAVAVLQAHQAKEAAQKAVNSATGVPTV
eIF4H inh retest: second read-out of eIF4H inh, no call of its own (marks repeat the call); inhibition, %; compound at 20 µM; confirmation average;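 mean of two retest wells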
PABP FP inh retest: further read-out of PABP FP inh, marked with its call; inhibition, %; compound at 20 µM; confirmation repeats;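 mean of two retest wells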
MT1-MMP act inh RFP: also measured in MT1-MMP act inh; calls as there; RFP signal change, %; measured here: RFP expression control read;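 0 = vehicle wells; hits needed this value within 50% of zero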
* = called active by the depositor; i = inactive; ? = inconclusive; nt = not tested or not shown; & = joins results of further samples. Only part of the results is shown. The share of hits here may be higher or lower than overall.

SMILES	UUG fidelity	eIF4H inh	CSC inhib	HIV Env fusion	MT1-MMP act inh	MT1-MMP act inh RFP	Rce1 inhib	PABP FP inh	others
COc1ccc(N(C(=O)c2ccco2)C(C(=O)NC2CCCC2)c2ccc(N3CCOCC3)cc2)c(OC)c1 (stereo not drawn)	-9	5	16	-20	0	1	i	-8
CC(=O)NC(CC(=O)NCCN1C(=O)S/C(=C\c2ccccc2)C1=O)c1ccccc1 (stereo not drawn)	-16	-23	-4	-1	-2	0	nt	9
COc1ccc(-c2noc(CSc3nnc(Cc4ccccc4)n3-c3ccc(Cl)cc3)n2)cc1	nt	-4	66	22	-2	-8	i	-1
Cc1ccc(S(=O)(=O)NC(C)C(=O)OCC(=O)N(C)c2ccccc2)cc1 (stereo not drawn)	-6	nt	-13	nt	-3	4	nt	nt
CC(=O)c1sc(Nc2nc(C)cc(C)n2)nc1C	-25	9	20	nt	4	3	i	18
COc1ccc2c(c1)C(=NO)c1cc(OC)ccc1-2	-8	-2	14	-124	-2	-6	i	-1
COc1cccc(CC2CC(=O)N(CCc3ccc4c(c3)OCO4)C2=O)c1 (stereo not drawn)	-7	-6	-17	nt	4	-1	i	-4
Cc1cc(/C=N/O)c(C)n1-c1ccccc1	nt	14	-8	-5	-1	1	i	4
CN(C(=O)c1ccc(NC(=O)Cc2cccc(NC(=O)C3CCN(C(=O)C4CCCCC4)CC3)c2)cc1)C1CC1	-3	nt	nt	-14	1	6	nt	nt
O=C(Nc1nccs1)c1ccccc1N=Cc1ccccc1	-4	-3	-8	nt	4	1	?	-3
OCC1(Cc2ccc(F)cc2)CCCN(Cc2ccc(F)cc2Cl)C1 (stereo not drawn)	-9	4	53	-42	-4	1	i	3
O=C(CCC(=O)NC1CCCCCC1)Nc1nnc(C(F)(F)F)s1	-18	-9	9	nt	-2	1	i	0
O=C(Nc1ccn(-c2ccccc2)n1)c1ccccc1Br	-8	1	-3	-8	-2	-6	i	-8
Cc1nc2sc(C(c3ccco3)N3CCN(c4ccccc4)CC3)c(O)n2n1 (stereo not drawn)	-6	-2	-10	32	1	-1	i	-3
Cc1c(OC(C)C(=O)NCc2ccccn2)ccc2c3c(c(=O)oc12)CCC3 (stereo not drawn)	-23	-9	-3	-3	4	0	i	-12
Cc1ccccc1NC(=O)NCCCCc1ccccc1	4	-7	4	4	-3	0	i	1
O=C(CNC(=O)c1cccs1)Nc1ccncc1	-21	nt	-15	-25	1	2	i	nt
C/C(=N/Oc1nc(C)cc(C)n1)c1ccccc1	-24	-8	-15	-8	-7	1	i	-15
CCOc1ccc(Br)cc1S(=O)(=O)Nc1ccc(N2CCOCC2)cc1	-14	-7	-6	-32	3	-7	nt	-5
OC(c1ccccc1)C(O)c1ccccc1 (stereo not drawn)	-4	nt	-3	1	-2	-4	i	nt
C=C(C)Cn1c(CCNC(=O)C(C)(C)C)nc2ccccc21	-14	4	-12	-36	-3	-9	i	4
N/C(=N\OC(=O)Oc1ccccc1)c1cccc([N+](=O)[O-])c1	nt	6	6	15	5	8	i	-9
COc1cc(-c2nnc(COC(=O)CSCC(=O)Nc3cc(C)on3)o2)cc(OC)c1OC	6	nt	-6	-1	2	9	i	nt
O=C(CNC(=O)c1ccc(Br)cc1)OC1CCOC1=O (stereo not drawn)	-41	nt	nt	-7	1	4	nt	nt
COc1ccc(-c2cc(-c3ccccc3)n3ncnc3n2)cc1	-15	-8	-15	-14	-5	-9	i	-4
Fc1cc2[nH]c(=S)[nH]c2c(Br)c1N1CCSCC1	-24	-12	-2	44	8	-2	i	3
C(=C\n1nnc2ccccc21)/c1ccccn1	-6	nt	-6	-52	0	2	i	nt
CCCN1CCN(S(=O)(=O)c2ccc(-c3cc(C)no3)s2)CC1	nt	8	-7	-2	-2	0	i	-2
O=C(O)c1ccc(OCC(F)(F)F)nc1	nt	-9	-19	-7	-1	3	i	5
C[C@@H]1CN([C@@H](C)CO)C(=O)c2cc(C#Cc3cccc(F)c3)cnc2O[C@H]1CN(C)C(=O)C1CCCCC1	12&-3&0	nt	nt	2	2	0	nt	nt
COc1ccc(OCc2cc(C(=O)NCC3CCCCO3)no2)c(Cl)c1 (stereo not drawn)	4	-13	15	-22	2	0	i	1
COc1ccc(NC(=S)N(CCN2CCOCC2)Cc2cc3cc4c(cc3[nH]c2=O)OCO4)cc1	nt	6	0	-2	nt	nt	i	13
CN(C)C(=O)c1ccc2c(c1[N+](=O)[O-])C(=O)c1ccccc1C2=O	nt	6	5	5	35	65	i	5
COC(=O)C1=C(O)/C(=C\c2ccc(CNS(=O)(=O)c3ccccc3)o2)N=C1C	nt	88	6	6	-15	11	i	4	eIF4H inh retest=12;PABP FP inh retest=8
O=C1CCCN1CCCNc1ccc(S(=O)(=O)N2CCCCC2)cn1	6	-6	-4	-22	5	1	i	6
Nc1nnc(-c2ccccc2)s1	nt	-5	-8	-34	-5	-2	i	-4
CCOc1ccccc1N(CC(=O)NCC1CCCO1)C(=O)CNS(=O)(=O)c1ccccc1 (stereo not drawn)	nt	2	-1	-5	3	-12	i	-4
CCCCNC(=O)C1(C)CCN1C(=O)c1ccncc1 (stereo not drawn)	1	nt	nt	7	4	4	nt	nt
C#CCN1c2ccccc2Sc2cccnc21	nt	11	-4	4	-12	-11	i	-9
C=CCN1C(=O)c2ccc(C(=O)N3CCC(C(=O)OCC)CC3)cc2C1=O	-16	nt	nt	-10	8	3	nt	nt
Cc1ccc(N2CC(C(=O)Nc3ccc(S(=O)(=O)N4CCOCC4)cc3)CC2=O)cc1 (stereo not drawn)	8	0	6	nt	-2	-4	i	-9
CCCCCn1c(CN2CCN(c3cccc(Cl)c3)CC2)nc2c1c(=O)n(C)c(=O)n2C	-4	3	26	nt	-3	-16	i	-7
Cc1ccc2cccc(O)c2[n+]1[O-]	-16	-4	5	-125	0	9	i	-10
CCOC(=O)c1c(C)nn(-c2ncccc2NC(=O)CCC(=O)O)c1C	-3	1	-12	4	2	1	i	5
CC(=O)NC(c1cc(Cl)c2cccnc2c1O)C1CC1 (stereo not drawn)	-17	nt	110*	nt	11	-1	nt	nt
COc1ccc(/C=C/C(=O)c2ccc3c(c2)OCCO3)cc1[N+](=O)[O-]	-10	-13	17	-49	-2	-4	i	-7
Cc1cc(C(=O)COC(=O)c2ccc[nH]c2=O)c(C)n1-c1ccccc1	-45	5	9	-49	2	1	i	5
CC1(C(=O)OCC(=O)NNC(=O)COc2ccc(Cl)cc2)CC1(Cl)Cl (stereo not drawn)	-12	nt	-10	1	5	6	i	nt

Among those listed so far, these contain a COOH group.
SMILES	UUG fidelity	eIF4H inh	CSC inhib	HIV Env fusion	MT1-MMP act inh	MT1-MMP act inh RFP	Rce1 inhib	PABP FP inh	others
O=C(O)c1ccc(OCC(F)(F)F)nc1	nt	-9	-19	-7	-1	3	i	5
CCOC(=O)c1c(C)nn(-c2ncccc2NC(=O)CCC(=O)O)c1C	-3	1	-12	4	2	1	i	5

Remaining list, next part
SMILES	UUG fidelity	eIF4H inh	CSC inhib	HIV Env fusion	MT1-MMP act inh	MT1-MMP act inh RFP	Rce1 inhib	PABP FP inh	others
CC1CCCN(c2c3c(nc4ccccc24)CCCC3)C1 (stereo not drawn)	-13	60	-8	0	6	-4	i	33	eIF4H inh retest=-6;PABP FP inh retest=-1
Cc1ccc(NC(=O)OCCN2CCN(S(=O)(=O)c3ccc(C)cc3)CCC2=O)cc1	-4	3	2	-23	2	-6	i	-1
CCN1/C(=C2/SC(=S)N(NC(C)=O)C2=O)Sc2ccc(Cl)cc21	-4	-11	-15	-5	-15	-4	i	-6
C#CCOCCOCCOCCNc1nc(N2CCN(C(=O)[C@H](C(C)C)n3cc(CCO)nn3)CC2)nc(N2CCN(C(=O)[C@H](C(C)C)n3cc(CCO)nn3)CC2)n1	-10	-1	-1	3	4	2	i	13
C=C1C2C[C@H](O)C(C)(C)[C@@]2(O)[C@H](O)C[C@]23C[C@@](C)(O)[C@H](CC[C@H]12)[C@H]3O (stereo partly drawn)	-14	-8	0	-39	-1	0	i	2
C=CCn1c(=O)c2ccccc2n2c(SCc3nc4ccccc4s3)nnc12	-20	-12	-2	nt	-1	-1	i	2
CCOc1ccc(-c2nc3ccccc3c(=O)o2)cc1	-6	-2	-2	-59	-2	3	i	6
CC(C)c1nc2c(c(=O)c3ccccc3n2C)c(=O)n1-c1ccc(F)cc1	nt	-4	-4	-112	-2	-1	i	1
CCOC(=O)CNC(=O)c1sc2ncnc(N3CCc4ccccc4C3)c2c1C	0	-8	6	nt	10	-1	i	12
CC12CCC(C/C1=N/O)C2(C)CBr (stereo not drawn)	nt	-5	-7	-5	4	-3	i	6
CC(=O)Nc1cccc(NC(=O)CCCC(=O)O)c1	0	3	-4	-149	3	3	i	4
O=C(COc1ccc(Br)cc1)Nc1ccc(-c2nnc(-c3ccco3)o2)cc1	-11	0	-9	-165	5	2	i	7
O=C(CSc1nnc(-c2cccnc2)n1CCc1ccccc1)N1CCCCC1	-11	-2	nt	-38	1	5	i	8
Cc1ccc(C(=O)NC2CCCCNC2=O)cc1 (stereo not drawn)	-12	-6	-7	1	1	0	i	0
Cc1ccc2c(c1)cc(C(=O)NCc1ccccc1)n2C	-13	-2	15	-3	6	-1	i	9
COC(=O)C(Oc1ccc2c(-c3ccc(OC)cc3)cc(=O)oc2c1)c1ccccc1 (stereo not drawn)	-1	6	1	0	-5	1	i	-2
CCCCNC(=O)CCNS(=O)(=O)c1ccc(Br)cc1	-11	-15	-3	nt	-2	-3	i	1
COc1ccc(Cl)cc1NS(=O)(=O)c1cccc(C(=O)N2CC(C)OC(C)C2)c1 (stereo not drawn)	3	nt	3	nt	0	0	nt	nt
Cc1ccc(N=Nc2cc(C)ccc2O)c(C)c1	39	2	3	-53	0	0	i	-2
O=C(NCCc1ccccc1)C1CCCN(S(=O)(=O)c2cnc[nH]2)C1 (stereo not drawn)	-5	-2	-12	-25	-4	4	i	2
Cc1ccc(NC(=O)N(Cc2nc3ccccc3c(=O)[nH]2)Cc2cccs2)cc1	-4	-4	-2	-70	2	5	i	8
CC(C)N(C(=O)[C@H]1CC(CC(=O)NCC23CC4CC(CC(C4)C2)C3)C(=O)N2CCc3c([nH]c4ccccc34)[C@]12C)C(C)C (stereo partly drawn)	-12	nt	nt	17	-3	-10	nt	nt
CC(C)OP(=O)(OC(C)C)C(NC(=O)c1ccc(Br)cc1)c1ccccc1 (stereo not drawn)	33	-4	5	2	-3	-7	i	0
COC(=O)c1ccc(CNC(=O)COC(=O)/C=C/c2ccc(O)c(OC)c2)cc1	-11	nt	-12	-18	4	0	nt	nt
CC1N(C(=O)N2CCOCC2)CCN1S(=O)(=O)c1ccc(Cl)cc1 (stereo not drawn)	-7	1	-21	7	-3	-1	i	2
O=C(c1[nH]c(C(F)(F)F)nc1-c1ccccc1)N1CCC2(CC1)C(=O)NCN2c1ccccc1	6	nt	nt	31	2	1	nt	nt
CN(C)c1ccc(S(=O)(=O)NCC(=O)OCC(=O)NC(=O)C2CCCCC2)cc1[N+](=O)[O-]	9	nt	-17	-8	7	0	nt	nt
Cc1noc(C)c1NC(=O)Nc1ccc2c(c1)C(=O)N([C@@H](C)CO)C[C@@H](C)[C@@H](CN(C)Cc1ccc3c(c1)OCO3)O2	-14&-3	nt	-14	10	1	4	nt	nt
CC(C)(C)NC(=O)C(Cc1ccccc1)NS(=O)(=O)c1cccc2nsnc12 (stereo not drawn)	3	-17	nt	-14	nt	nt	i	5

Bioassay records from PubChem.
